HSD17B inh – qHTS Assay for Inhibitors of HSD17B4, hydroxysteroid (17-beta) dehydrogenase 4 | recombinant HSD17B10, NADH fluorescence kinetic; many of its hits are not listed in these tables | Potency, µM (top dose mostly 57.1 µM), for the others: at the highest dose activity change, negative = inhibition, most hits filed as inhibitors | 75,000 tested, 7.6% active; active = well fitted inhibition curve with a large enough effect; inconclusive = small, poorly fitted or top-dose-only effect; inactive = no such curve, though single readings can be large or run the other way;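 also: the protocol describes HADH2 (HSD17B10) and not the HSD17B4 of the title; nearly all actives have a fitted effect of over 70% in size; most hits overshoot -100% by far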
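Activity followed as NADH fluorescence increase (ex 360, em 450 nm) every 30 seconds for 4 min, using final 90 uM beta-hydroxybutyryl CoA and 1 mM NAD+. Recombinant His-tagged enzyme, 20 nM, pH 9.0 Tris buffer, 15 min compound preincubation.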
An asterisk follows results filed as active; i = inactive; ? = inconclusive; [ ] = another dose, or the depositor's remark. % is scaled to controls: 0 for no effect and ±100 for the full control effect; potency is read from the fitted curve at half-maximal effect.

SMILES,HSD17B inh
N#CC1=C(N)N2C(=C(C#N)C13CCCCC3)SC1CCCCC12O (centres undefined),115%[activator]
CCOC(=O)c1c(NC(=O)Cn2nnc3ccccc32)sc2c1CCC(C)C2 (centres undefined),25µM*
Cc1ccc(-n2nnnc2SCC(=O)Nc2ccc3c(c2)COC3=O)cc1C,?
Cc1nn(Cc2ccc(Cl)cc2)c(C)c1NC(=O)c1noc2c1CCCCC2,-2%
Cc1cc(C(=O)NCc2cccnc2)n(-c2ccccc2)n1,5%
COc1ccccc1OC(=O)C1CC(=O)N(c2ccc(Cl)cc2)C1 (centres undefined),-7%
COC(=O)c1ccc(OC)c(CSc2nnc(-c3ccc(C)cc3)o2)c1,6%
COCCN1CC(O)=C(c2nc3ccccc3c(=O)[nH]2)C1=N,25µM*
CCN(CC)C(=O)C1CCCN(C/C=C/c2ccccc2)C1 (centres undefined),-6%
CC(=O)Nc1ccc(S(=O)(=O)Nc2ncccn2)cc1,-2%
Cc1[nH]c(=O)[nH]c(=O)c1NS(=O)(=O)c1ccc2c(c1)CCCC2,1%
COc1ccc2[nH]c3c(c2c1)CN(C)CC3,?
O=[N+]([O-])c1cccc2cn[nH]c12,-8%
CCOC(=O)c1c(C)oc2ccc(OCC(N)=O)cc12,2%
CCNC(=O)COC(=O)COc1ccc(Cl)cc1C,-4%
Cc1noc(C)c1S(=O)(=O)N1CCCC(C(=O)NCCc2ccc(Cl)cc2)C1 (centres undefined),2%
Cc1cccc(C)c1OCc1nnc(SCC(=O)NCCc2ccccc2)o1,-15%
COc1ccccc1NC(=O)CSc1nnc(CNC(=O)COc2ccc(Cl)cc2)o1,-2%
CN1CCc2c(sc3c2c(=O)n(-c2ccccc2)c2nnc(SCc4ccc(Cl)cc4)n32)C1,-16%
O=C(CSc1nnc(-c2cccs2)o1)N1CCOCC1,14%
COC(=O)c1ccccc1NC(=O)COC(=O)CSCC(=O)N1CCOCC1,3%
O=C(NCc1nc(-c2ccccc2)no1)c1ccc2c(c1)OCO2,-4%
COc1cc(OC)c(C2N(c3ccccn3)C(=O)C3CCCN32)cc1OC (centres undefined),3%
O=C(NCc1nc(-c2ccccc2)no1)c1cccs1,2%
Cn1c(SCC(=O)Nc2ccc3c(c2)OCCO3)nnc1-c1ccco1,-3%
CC1CCCCC1NC(=O)CSc1nncs1 (centres undefined),8%
CCOC(=O)c1oc2ccc(Br)cc2c1CSc1nnc(C)s1,8%
Cc1ccc(OCC(=O)N2CCN(C(=O)c3cccs3)CC2)cc1,1%
CCCC(=O)N1CCN(S(=O)(=O)c2cc(Cl)ccc2OC)CC1,1%
COCc1[nH]nc2c1C(C1C=CCCC1)C(C#N)=C(N)O2 (centres undefined),2%
COC(=O)c1ccc(C(NC(=O)OCc2ccccc2)/C(=C/[C@@H](C)C(=O)NCc2ccncc2)c2cccnc2)cc1 (some centres undefined),6%
COc1cc(Cl)c(S(=O)(=O)n2cnc(C)c2)cc1Cl,-1%
CCOC(=O)N1CCC(NC(=O)c2ccc3nc(N4CCOCC4)sc3c2)CC1,-11%
CC(=O)c1ccc(-n2nnnc2SCC(=O)N2CCN(C(=O)c3ccco3)CC2)cc1,-4%
O=C(CSc1ncnc2c1nnn2Cc1ccccc1F)N1CCN(c2ccccc2)CC1,-4%
COc1ccc(Cc2nnc(SCC(=O)NCc3ccco3)o2)cc1,2%
CC(C)Cn1cc(C(=O)N2CCOCC2)c2c3ccccc3n(C)c2c1=O,25µM*
COc1cccc(OC)c1C(=O)N1CCN(c2c(Cc3ccccc3)c(C)nc3ncnn23)CC1,7%
CC(=NCCc1ccccc1)C1=C(O)CSC1=O,-8%
Cc1cnc(C(=O)OCC(=O)N2c3ccccc3NC(=O)C2(C)C)cn1,8%
O=C(O)c1ccccc1-c1ccccc1C(=O)c1ccccc1,4%[11.4 µM]
Nc1nnc(CCc2ccccc2)s1,-3%
NS(=O)(=O)c1ccc(N=Nc2c(O)c(C(=O)O)cc3ccccc23)cc1,-8%[11.4 µM]
O=C(c1cc2cc(Br)ccc2oc1=O)N1CCN(c2ccccn2)CC1,-13%
COC(=O)[C@@H]1C[C@@]2(O)[C@@H](O)[C@@H](O)[C@@H](O)C[C@H]2N1Cc1ccc(-c2ccccc2)cc1,i
CSc1nc(C)cc(OCNC(=O)c2cccs2)n1,7%
Cc1cc(C)c2c(CN3CCN(Cc4ccc5c(c4)OCO5)CC3)cc(=O)oc2c1C,10%
Cc1cc(C)nc(SCC(=O)Oc2ccc3oc(=O)cc(C)c3c2)n1,-2%

As a short view, 3 of the compounds above.
SMILES,HSD17B inh
CSc1nc(C)cc(OCNC(=O)c2cccs2)n1,7%
Cc1cc(C)c2c(CN3CCN(Cc4ccc5c(c4)OCO5)CC3)cc(=O)oc2c1C,10%
Cc1cc(C)nc(SCC(=O)Oc2ccc3oc(=O)cc(C)c3c2)n1,-2%

(listing goes on)
SMILES,HSD17B inh
O=C1CC(N(Cc2ccc3c(c2)OCO3)C(=O)Nc2ccc(F)cc2)C(=O)N1c1ccccc1 (centres undefined),-15%
O=C(O)c1ccc(CN2CCCCC2)o1,-3%
OC1(c2ccccc2F)CCN(Cc2nnnn2CCc2ccccc2)CC1,-6%
Nc1nc(=S)c2ncn([C@H]3O[C@@H](CO)[C@@H](O)[C@@H]3O)c2[nH]1,-3%[25.6 µM]
CN(C)CCn1c(C(=O)Nc2ccccc2)cc2ccccc21,-3%
Cc1ccc(S(=O)(=O)N2CCN(C(=O)CN3C(=O)NC4(CCOc5ccccc54)C3=O)CC2)cc1 (centres undefined),1%
Cc1ccc(Cn2c(SCCN3CCOCC3)nc3c2c(=O)n(C)c(=O)n3C)cc1,2%
CC(C)(C)OC(=O)[C@H]([C@@H]1N[C@@H](C(=O)O)C(C)(C)S1)N1C(=O)c2ccccc2C1=O,2%[11.4 µM]
COC(=O)N1CCC2(CCCN(Cc3ccccc3)C2)CC1,3%
O=C(O)[C@H](/C=C\c1ccccc1)c1ccccc1,-3%[11.4 µM]
O=C(CCCc1c[nH]c2ccccc12)N1CCN(S(=O)(=O)c2cccs2)CC1,-3%
CCc1ccc(N(CC(=O)NC)S(C)(=O)=O)cc1,2%
COC(=O)[C@H](Cc1ccccc1)NC(=O)[C@@H](C)CO,-1%[11.4 µM]
COC1=CC(C)C2CC3OC(=O)CC4C(C)=C(OC)C(=O)C([C@]2(C)C1=O)[C@]34C (some centres undefined),-2%
Cc1noc(NS(=O)(=O)c2ccc(NC(=O)CCn3c(=O)oc4ccccc43)cc2)c1C,-2%
Cn1c(=O)c2cc(NCc3ccccc3)nnc2n(C)c1=O,-4%
CCOc1ccc(Cc2nnc(SCC(=O)c3ccc(OC)cc3)o2)cc1,7%
CCOC(=O)c1cc(-c2ccccc2)n(CC(=O)O)c1C,5%
O=C(CN1CCN(S(=O)(=O)c2ccc(F)cc2)CC1)Nc1ccc2c(c1)OCO2,-5%
O=C(COc1ccccc1)Nc1ncc2c(n1)CCCC2=O,-3%
O=C(Nc1c(C(=O)Nc2ccc3c(c2)OCCO3)cnn1-c1ccccc1Cl)c1ccco1,1%
COc1cccc(C(=O)Nc2nnc(C(C)C)s2)c1,-2%
COc1ccc(C(CC(=O)O)NC(=O)c2ccco2)cc1OC (centres undefined),-1%
Cc1c(C(=O)O)nnn1-c1ccccc1,11%
O=C(Oc1ccccc1)N1CCC2(CCCN(c3ccncc3)C2)CC1,7%
CCCCNc1nc(C)nc2c1nc(-c1ccccc1)n2CCCCN(CC)CC,25µM*
CCOC(=O)CCCCC1=CC2=CC(=O)C(C)(O)C(=O)C2=CO1 (centres undefined),-3%[11.4 µM]
N#Cc1nc(COc2ccc(F)cc2)oc1N1CCCC1,-4%
COC(=O)c1cc2oc(C)cc2n1CC(=O)N(C)c1ccccc1,-1%
Cc1ccc(N(C(=O)CCC(=O)Nc2cc(C)on2)C(C(=O)NC2CCCC2)c2ccncc2)cc1 (centres undefined),-8%
CC(Oc1ccccc1)C(=O)NCc1cccnc1 (centres undefined),1%
CC1CN(C(c2ccco2)c2sc3ncnn3c2O)CC(C)O1 (centres undefined),25µM*
Fc1ccccc1N1CCN(c2nc3ccccc3n3nnnc23)CC1,-17%
O=c1c2[nH]c3ccc(Cl)cc3c2ncn1CCN1CCCCC1,-12%
Cn1c(SCC(=O)Nc2ccccc2F)nnc1-c1cccnc1,11%
COc1ccc(Cc2nc(-c3ccc(Br)o3)no2)cc1OC,6%
COc1cc(C(=O)NCc2ccco2)c(Br)c(OC)c1OC,3%
COc1ccccc1NC(=O)CSc1nnc(C2CCCCC2)n1C,5%
O=C(c1ccncc1)N1CCC2(CCCN(c3ccc(-c4ccccc4)cc3)C2)CC1,-2%
CC12CCC(C(=O)Nc3ccccc3N3CCOCC3)(CC1=O)C2(C)C (centres undefined),4%
CS(=O)(=O)N1CCC[C@@]2(CCN(C(=O)Nc3cccc(F)c3)C2)C1,8%
CCn1c(=O)cc(SCC(=O)NCCN2CCN(Cc3ccccc3)CC2)c2ccccc21,-7%
O=C(O)c1cc(NCc2cccs2)ccc1N1CCOCC1,?
CCC1Sc2ccccc2N(CC(=O)NCCC(C)C)C1=O (centres undefined),-5%
CC1=C(C2=C(C)C(C(C)C)C3=C(C(=O)C(O)C3O)C2O)C(O)C2=C(C(O)C(O)C2=O)C1C(C)C (centres undefined),3%
N#Cc1cc2c(nc1SCc1cccnc1)CCCC2,?
COCCN1CSC(=S)N(Cc2ccco2)C1,?
NC(=O)CSc1nnc(Cc2csc(Nc3ccccc3)n2)n1Cc1ccccc1,-3%
CCn1c(=O)cc(OCC(=O)Nc2cc(C)ccn2)c2ccccc21,-4%
Cc1ccc2c(c1)CCCN2C(=O)C1CCCO1 (centres undefined),6%
CCOc1ccc(C2CC(c3ccc(F)cc3)Nc3nc(N)nn32)cc1 (centres undefined),3%
CCCC(c1nnnn1CCc1ccccc1)N1CCN(C2CCCC2)CC1 (centres undefined),2%
O=S1(=O)CCC(S(=O)(=O)N2CCCCCC2)C1 (centres undefined),5%
Clc1ccc(OCc2cn3cccnc3n2)c2ncccc12,-142%
O=C(Nc1cccc(C(=O)N2CCOCC2)c1)c1cccnc1,6%
COc1cc(NC(=O)c2c(F)cccc2F)nc(OC)n1,20%
CCN1CCN(C(=O)c2cnn3c(C(F)F)cc(-c4ccc(C)cc4)nc23)CC1,-23%
CC1CCC(NS(=O)(=O)c2ccc3c(c2)n(C)c(=O)c(=O)n3C)CC1 (centres undefined),?
CN1C(=O)NC(c2ccc(O)cc2)C(C(=O)c2cccs2)C1(O)C(F)(F)F (centres undefined),1%
COc1cccc(CN2C(=O)C3(C(C#N)=C(N)OC4=C3C(=O)CCC4)c3ccccc32)c1 (centres undefined),-9%

(more compounds)
SMILES,HSD17B inh
COc1ccc(C(=O)c2coc3ccc(O)c(CN4CCOCC4)c23)cc1,-4%
COC(=O)c1ccc(NC(=O)c2ccc3c(c2)OCO3)cc1,-9%
CCS(=O)(=O)c1ccc(O)c(N2C(=O)C3C4C=CC(C4)C3C2=O)c1 (centres undefined),-1%
O=C(c1c(Cl)nc2sccn12)N1CCCc2ccccc21,6%
O=C1CCC(=O)N1c1cccc(-c2nc3ccccc3o2)c1,32µM*
COC(=O)C1(C)C=C2C(=C(c3ccccc3)C(=O)C2C)CN1 (centres undefined),2%
COc1ccc(C2C(C(=O)NCC3CCCO3)CCC(=O)N2c2ccc3c(c2)OCO3)cc1 (centres undefined),2%
CC(CN1CCCCC1)OC(=O)c1ccccc1Cl (centres undefined),3%
COc1cccc(C2NC(CC(C)C)(C(=O)O)C3C(=O)N(Cc4ccccc4)C(=O)C23)c1O (centres undefined),10%
O=C(COc1ccccc1)NC1CCN(Cc2ccccc2)CC1,7%
Cc1[nH]n(-c2ccccc2)c(=O)c1S(=O)(=O)c1ccccc1,-9%
O=C(NCc1ccccn1)c1cc(S(=O)(=O)N2CCN(c3ccccc3)CC2)ccc1Cl,15%

Next part, starting with the last five of the part before.
SMILES,HSD17B inh
CC(CN1CCCCC1)OC(=O)c1ccccc1Cl (centres undefined),3%
COc1cccc(C2NC(CC(C)C)(C(=O)O)C3C(=O)N(Cc4ccccc4)C(=O)C23)c1O (centres undefined),10%
O=C(COc1ccccc1)NC1CCN(Cc2ccccc2)CC1,7%
Cc1[nH]n(-c2ccccc2)c(=O)c1S(=O)(=O)c1ccccc1,-9%
O=C(NCc1ccccn1)c1cc(S(=O)(=O)N2CCN(c3ccccc3)CC2)ccc1Cl,15%
Cc1ccccc1-c1nc(CN2CCC(C(=O)N3CCN(c4ccccn4)CC3)CC2)c(C)o1,?
COc1ccccc1NC(=O)C1CC(=O)OC1c1ccccc1 (centres undefined),-13%
O=C(O)CSc1nnc(-c2cccs2)n1-c1ccc(Cl)cc1,?
COC(=O)c1cc(NC(=O)CN2CCOCC2)cc(C(=O)OC)c1,9%
CCN(CC)c1ncccc1C(=O)NCc1cccs1,10%
COCCN(C(=O)C(C)C)c1nnc(-c2cccc(C)c2)s1,-12%

Bioassay records from PubChem.

These rows are one share of the data. The share of hits here may be higher or lower than overall.
